gsp antag = qHTS for Antagonists of gsp, the Etiologic Mutation Responsible for Fibrous Dysplasia/McCune-Albright Syndrome: qHTS. gsp-mutant cells, cAMP HTRF, 30 min; control for the full effect not named in the record. Potency, µM (series often up to 76.9 µM), for inactives: at the top dose activity change, negative = inhibition, hits mostly inhibitors. actives 0.4% (n = 340,000). AID 624288, 2012; active = falling curve of any shape with a large fitted effect; inconclusive = falling curve, mostly with a smaller effect; inactive = flat or rising curve; cell line not stated here;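 also: intracellular cAMP measured with PDE inhibitor Ro 20-1724 present during compound exposure; potency is read from the fitted curve at half-maximal effect; % is scaled to controls: 0 for no effect and ±100 for the full control effect; nearly all actives have a fitted effect of over 65% in size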
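HTRF cAMP measurement after 30 min RT detection following 30 min, 37C compound treatment alongside […] (added as 300 uM solution) in G418-selected cells seeded at 2000/well and grown 16–24 h.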
Sfp inh = qHTS Assay for Inhibitors of Bacillus subtilis Sfp phosphopantetheinyl transferase (PPTase). 4'-phosphopantetheinyl transferase ffp (Bacillus subtilis), Q9F4F7. Biochemical Sfp PPTase activity, qHTS. Potency, µM, inactives show max response, negative = inhibition, actives largely listed as inhibitors. actives 3.5% (n = 310,000). AID 1490, 2009; active = well fitted inhibition curve with a large enough effect; inconclusive = small, poorly fitted or top-dose-only effect, or another doubt; inactive = no such curve, though single readings can be large or run the other way;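 also: the enzyme is Sfp with the accession as filed and its product quenches rhodamine fluorescence; potency is read from the fitted curve at half-maximal effect; 0% = enzyme reaction without inhibitor and -100% = no enzyme wells; top concentration of the series not given in the record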
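Sfp 15 nM + cpd, 15 min RT; start w/ rhodamine-CoA 5 uM, BHQ-2-YbbR 12.5 uM (final); 50 mM Hepes pH 7.6, 10 mM MgCl2, 0.01% NP-40, 0.01% BSA; read 525/598 nm at 0 and 30 min.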
Menin-MLL FL inh = qHTS Assay for Inhibitors Targeting the Menin-MLL Interaction in MLL Related Leukemias: Competition With Fluorescein Labeled MLL-derived Peptide | 290,000 tested, under 10 active | Fluorescence polarization, fluorescein-MLL peptide displacement from menin | AID 1766, 2009 | FP activity change, % at 61.4 µM; inconclusive = falling polarisation curve, or a change in total fluorescence; inactive = total fluorescence flat and polarisation flat or rising; no compound was filed as active; the % refers to the polarisation; negative = inhibition;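 also: % of control where 0% means no effect; inhibitors lower the polarisation; unlabelled MLL peptide was the positive control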
TRPML1 inh = qHTS for Inhibitors of the Human Mucolipin Transient Receptor Potential 1 (TRPML1); Mucolipin-1 (Homo sapiens), Q9GZU1; TRPML1-inducible cells, Ca2+ dye fluorescence, FDSS; stronger effect = lower value; inhibition of EC80 agonist-evoked calcium signal; activity change, negative = inhibition, % (concentration not given with the values); actives 0.02% (n = 390,000); in the data active means activity change below about -50%; inconclusive means about -30% to -50%; inactive means above about -30%;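 also: stimulus is agonist 54-4 at its EC80 concentration; % is scaled to controls: 0 for no effect and ±100 for the full control effect; compound concentration not given in the record; the text of the record puts the active cut at -80%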
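Tet-induced TRPML1-DL cells loaded with Ca8 no-wash calcium dye were read kinetically on FDSS. Compound addition was followed by EC80 agonist 54-4 (4 uM final); inhibition was read over 110 s.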
gsp ag = qHTS for Agonist of gsp, the Etiologic Mutation Responsible for Fibrous Dysplasia/McCune-Albright Syndrome: qHTS; gsp mutant cells, cAMP HTRF, 30 min; control for the full effect not named in the record; Potency, µM (highest dose often 76.9 µM), for inactives: top-dose activation (cAMP increase), usual class: activators; actives 0.13% (n = 340,000); AID 624287, 2012; active = well fitted activation curve with a large enough effect; inconclusive = small, poorly fitted or top-dose-only effect, or another doubt; inactive = no such curve, though single readings can be large or run the other way; cell line not stated here;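 also: phosphodiesterase inhibitor Ro 20-1724 added with compounds to block cAMP breakdown; potency is read from the fitted curve at half-maximal effect; nearly all actives have a fitted effect of over 60% in size; about a fifth of the inactives were tested at one dose only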
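Cells in DMEM/10% FBS with G418 were pretreated with compounds in DMSO plus […] (300 uM stock) for 30 min at 37C. cAMP was measured by HTRF (cAMP-d2 plus anti-cAMP antibody-K) after 30 min at room temperature.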
ClpP mod = qHTS Assay for Activators of ClpP | Potency, µM (highest dose often 57.5 µM), for the others: top-dose activity change, negative = active | ATP-dependent Clp protease proteolytic subunit (Bacillus subtilis (strain 168)), P80244 | actives 1.9% (n = 340,000) | purified B. subtilis ClpP, FRET peptide cleavage, 20 min; active = well fitted falling curve with a large enough effect; inconclusive = small, poorly fitted or top-dose-only effect; inactive = no such curve, though single readings can be large or run the other way; also: potency is read from the fitted curve at half-maximal effect; the source files actives as falling curves though it sought activators and does not explain the sign; nearly all actives have a fitted effect of over 65% in size; many hits overshoot -100%
Target sequence (P80244 whole entry, looked up): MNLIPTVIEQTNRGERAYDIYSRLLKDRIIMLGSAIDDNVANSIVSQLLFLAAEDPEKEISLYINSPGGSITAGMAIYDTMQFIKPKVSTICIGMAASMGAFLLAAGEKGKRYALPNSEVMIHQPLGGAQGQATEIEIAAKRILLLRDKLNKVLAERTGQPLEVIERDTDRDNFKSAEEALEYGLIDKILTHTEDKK
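ClpP 10 microg/mL final, pH 8 Tris/KCl buffer with BSA, glycerol, Tween-20; compound pinned in; FRET-FV substrate; RT 20 min; Ex320/Em430; ΔFRET vs ADEP 5.8 microM, DMSO, no enzyme.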
TRPV1 potentiator = HTS Assay for Compounds that Act as Potentiators of the Vanilloid Receptor 1; actives 0.02% (n = 320,000); potentiation, % at 8.33 µM; AID 540277, 2011; TRPV1-expressing cells, Fluo-8 calcium influx, capsaicin EC20 potentiation; host cell line not named in the record; control for the full effect not named in the record; Transient receptor potential cation channel subfamily V member 1 (Homo sapiens), Q8NER1; active means potentiation above 80%; inconclusive means 30% to 80%; inactive means below 30%; also: 0% is about no effect
Target sequence (Q8NER1 whole entry, looked up): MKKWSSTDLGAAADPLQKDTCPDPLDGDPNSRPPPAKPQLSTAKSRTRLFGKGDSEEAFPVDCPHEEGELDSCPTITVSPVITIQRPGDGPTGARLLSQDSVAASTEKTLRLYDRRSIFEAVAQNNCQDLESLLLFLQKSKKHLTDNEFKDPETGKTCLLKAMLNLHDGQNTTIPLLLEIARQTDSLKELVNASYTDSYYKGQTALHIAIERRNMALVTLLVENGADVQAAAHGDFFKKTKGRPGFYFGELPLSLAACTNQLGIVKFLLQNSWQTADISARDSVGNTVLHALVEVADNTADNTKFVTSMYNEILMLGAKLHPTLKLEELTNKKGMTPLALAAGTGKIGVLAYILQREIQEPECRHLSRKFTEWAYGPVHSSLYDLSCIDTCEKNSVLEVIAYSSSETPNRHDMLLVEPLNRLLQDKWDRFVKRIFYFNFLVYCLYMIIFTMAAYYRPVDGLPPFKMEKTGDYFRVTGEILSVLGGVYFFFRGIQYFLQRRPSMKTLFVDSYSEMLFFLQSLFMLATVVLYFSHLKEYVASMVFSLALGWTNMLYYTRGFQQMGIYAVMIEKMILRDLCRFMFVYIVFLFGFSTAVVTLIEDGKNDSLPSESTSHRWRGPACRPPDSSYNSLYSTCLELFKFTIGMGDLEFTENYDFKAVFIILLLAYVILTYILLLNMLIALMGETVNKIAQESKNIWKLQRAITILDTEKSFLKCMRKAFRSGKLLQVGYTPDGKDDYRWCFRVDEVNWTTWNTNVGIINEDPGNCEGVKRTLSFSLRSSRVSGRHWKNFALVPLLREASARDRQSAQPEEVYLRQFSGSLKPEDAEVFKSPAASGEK
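Cells expressing TRPV1 were dye-loaded with Fluo-8 and read kinetically: 10 s baseline, 3 min after compound (agonist portion), then 2 min after EC20 capsaicin (allosteric enhancer portion). Calcium-bound dye fluorescence at 480/520 nm.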
* marks the source's active call; other numbers are inactive results; [ ] = dose if it differs, or a comment.

For N=c1c(C(=O)NCc2ccco2)cc2c(=O)n3ccccc3nc2n1C1CCCC1 the results were gsp antag 1%, Sfp inh 6%, TRPML1 inh 2, gsp ag -4%[15.4 µM] and TRPV1 potentiator -16.
CC(NC(=S)Nc1ccc(Cl)cc1)C(c1ccccc1)N1CCOCC1 (centres undefined) was read as gsp antag -8%, Sfp inh 20%, Menin-MLL FL inh 0.8, TRPML1 inh -11, gsp ag 0%, ClpP mod -1.3% and TRPV1 potentiator 21.
`Cc1c(C(=O)N2CCCC2)sc(NC(=O)c2cccs2)c1C#N` gave gsp antag -32%, Sfp inh 29%, Menin-MLL FL inh inconclusive, TRPML1 inh 33, gsp ag -28%, ClpP mod -1.3% and TRPV1 potentiator 7.
For COc1ccccc1CNC(=O)COC(=O)/C=C/c1ccc2c(c1)OCO2 the results were gsp antag -10%, TRPML1 inh 8, gsp ag 24% and ClpP mod -18%.
COCCn1c(SCC(=O)NCc2ccc3c(c2)OCO3)nc2ccccc2c1=O was read as gsp antag -1%, Sfp inh 12%, Menin-MLL FL inh -2.7, TRPML1 inh -5, gsp ag 7% and TRPV1 potentiator 3.
Clc1nn2cnnc2c2ccccc12 was read as gsp antag -6%, Sfp inh -6%, Menin-MLL FL inh 0.0, TRPML1 inh 6, gsp ag -42%[inhibitor], ClpP mod -2.4% and TRPV1 potentiator -5.
For Cc1cc(C)n2nc(SCC(=O)N(CCC#N)c3ccc(F)cc3)nc2n1 the results were gsp antag 2%, TRPML1 inh -13, gsp ag 2%, ClpP mod -14% and TRPV1 potentiator 5.
For CC(=O)Nc1ccc(S(=O)(=O)N2CCN(S(=O)(=O)c3ccc(NC(C)=O)cc3)CC2)cc1 the results were gsp antag 10%, Sfp inh -5%, Menin-MLL FL inh 0.7, TRPML1 inh 13, gsp ag 3% and TRPV1 potentiator 1.
Screening Cc1ccc(C(C)C)c2c1C(c1ccc3c(c1)OCO3)CC(=O)O2 (centres undefined) returned gsp antag -11%, Sfp inh 1%, Menin-MLL FL inh -1.0[94.6 µM], TRPML1 inh -1 and ClpP mod -0.5%.
`Cc1c(C(=O)NC(=S)NCc2cccnc2)cccc1[N+](=O)[O-]` gave gsp antag -1%, Sfp inh -14%, TRPML1 inh -2, gsp ag -20%, ClpP mod -1.5% and TRPV1 potentiator 12.
Screening Cc1ccc(S(=O)(=O)Nc2nc(C)c(C(=O)NNS(=O)(=O)c3cc(C)ccc3C)s2)cc1 returned gsp antag -8%, Sfp inh 4%, TRPML1 inh -5, gsp ag -5% and TRPV1 potentiator 4.
Cc1ccc(CNc2nc3ccc(C)cc3n3cnnc23)cc1 was read as gsp antag 0%, Sfp inh inconclusive, Menin-MLL FL inh 5.6, TRPML1 inh -7, gsp ag 1%, ClpP mod inconclusive and TRPV1 potentiator 10.
For CC(C)(C)[C@H]1C=C(C(=O)O)O[C@@H](OCc2ccc(CO)cc2)C1 the results were gsp antag 9%, TRPML1 inh -2, gsp ag -4% and ClpP mod -1.1%.
Screening CCN(CC)C(=O)Cn1cc(C(=O)C(=O)N2CCN(c3ccc(OC)cc3)CC2)c2ccccc21 returned gsp antag -13%, Sfp inh 11%, TRPML1 inh 5, gsp ag -10%, ClpP mod -0.6% and TRPV1 potentiator 15.
For CCC(=O)N1CCN(c2ccccc2NC(=O)c2ccc([N+](=O)[O-])o2)CC1 the results were gsp antag -13%, Sfp inh 15%, Menin-MLL FL inh -3.5, TRPML1 inh 3, gsp ag -8%[15.4 µM] and TRPV1 potentiator -3.
For CCCCN(C(=O)CSc1cc(C)c2ccc(OC)cc2n1)c1c(N)n(Cc2ccccc2)c(=O)[nH]c1=O the results were gsp antag -1%, Sfp inh -15%, Menin-MLL FL inh 5.4, TRPML1 inh -2, gsp ag 13%, ClpP mod -2.7% and TRPV1 potentiator 12.
`Cc1ccc2c(C(=O)CN3CCCC3)c(C)[nH]c2c1` gave gsp antag -3%, Sfp inh -5%, Menin-MLL FL inh -0.2, TRPML1 inh -2, gsp ag -18%, ClpP mod -13% and TRPV1 potentiator 3.
COc1ccccc1NC(=O)CCCn1c(=S)[nH]c2ccccc2c1=O was read as gsp antag -7%, Sfp inh 8%, Menin-MLL FL inh -1.0, TRPML1 inh -3, gsp ag 10%, ClpP mod 0.9% and TRPV1 potentiator 29.
For CCc1nnc(NC(=O)c2cc3ccccc3oc2=O)s1 the results were gsp antag -2%, Sfp inh 5%, Menin-MLL FL inh 4.0, TRPML1 inh -10, gsp ag 27%, ClpP mod -4.3% and TRPV1 potentiator -9.
Cc1ccc(S(=O)(=O)CCC(=O)OC(C)c2nnc(-c3cccs3)o2)cc1 (centres undefined) was read as gsp antag -4%, TRPML1 inh 7, gsp ag 1% and ClpP mod 0.4%.
OCCc1c[nH]c2ccc(C(F)(F)F)cc12 was read as gsp antag 3%, Sfp inh 18%, Menin-MLL FL inh 4.7, TRPML1 inh -3, gsp ag -13%, ClpP mod -18% and TRPV1 potentiator 14.
`CCNc1nc(Sc2ccc(C)cc2)cc(C(F)(F)F)n1` gave gsp antag -6%, Sfp inh 11%, Menin-MLL FL inh -1.9, TRPML1 inh -8, gsp ag inconclusive, ClpP mod -6.7% and TRPV1 potentiator -6.
`CN(C)N=Nc1ccc(S(N)(=O)=O)cc1` gave gsp antag 7%, Sfp inh 9%, Menin-MLL FL inh -1.3, TRPML1 inh -29, gsp ag -1% and TRPV1 potentiator 2.
For O=C(Nc1ccccc1)N1CCN(CCc2ccccc2)CC1 the results were gsp antag -9%, Sfp inh 5%, Menin-MLL FL inh -1.2, TRPML1 inh -8, gsp ag -3%[15.4 µM], ClpP mod 1.9% and TRPV1 potentiator 1.
Cc1ccc(-c2ccc(C#N)c(=O)n2CC(=O)N(C)C)cc1 was read as gsp antag -8%, Sfp inh 6%, Menin-MLL FL inh 1.6, TRPML1 inh 3, gsp ag 3%[15.4 µM], ClpP mod -0.1% and TRPV1 potentiator -3.
O=c1c2cc(NC(=S)NC3CC3)ccc2nc2n1CCCCC2 was read as gsp antag 4%, Sfp inh -3%, Menin-MLL FL inh 0.2, TRPML1 inh 11, gsp ag 8%[15.4 µM], ClpP mod -1.0% and TRPV1 potentiator 0.
COc1ccccc1N(C(=O)c1ccco1)C(C(=O)NC1CCCC1)c1ccncc1 (centres undefined) was read as gsp antag 4%, Sfp inh 11%, Menin-MLL FL inh -1.8, TRPML1 inh -3, gsp ag 13%[15.4 µM], ClpP mod -2.4% and TRPV1 potentiator 6.
For CCOc1ccccc1NC(=O)COC(=O)C1CCC(=O)N1 (centres undefined) the results were gsp antag 6%, TRPML1 inh -2 and gsp ag 7%.
Cc1cc(C(=O)Nc2cccc3ccccc23)oc1C was read as TRPML1 inh -1, gsp ag inconclusive and ClpP mod -25%.
CCc1c(C)nc(N2CCOCC2)[nH]c1=O was read as gsp antag 5%, Sfp inh -5%, Menin-MLL FL inh 0.7, TRPML1 inh 5, gsp ag -60%[inhibitor], ClpP mod -1.2% and TRPV1 potentiator 27.
Screening COC(=O)c1ccccc1Sc1c(/C=N/OCc2ccc(Cl)cc2)c(C(F)(F)F)nn1C returned gsp antag -14%, Sfp inh inconclusive, Menin-MLL FL inh -0.1, TRPML1 inh -4, gsp ag 0%, ClpP mod -2.7% and TRPV1 potentiator inconclusive.
Screening COc1ccccc1C(=O)NCCC(=O)NCC1CCCCC1 returned gsp antag 5%, TRPML1 inh 11, gsp ag 13%[15.4 µM] and ClpP mod -4.4%.
Screening CC(C)(C)NC(=O)CSc1nnc(C2CC2)n1-c1ccccc1 returned gsp antag 5%, Sfp inh 20%, Menin-MLL FL inh -1.5, TRPML1 inh -10, gsp ag -15%[15.4 µM] and TRPV1 potentiator 8.
`O=C(O)C1CCCCC1C(=O)NCCCCc1ccccc1` (centres undefined) gave gsp antag 9%, Sfp inh 1%, Menin-MLL FL inh -0.2, TRPML1 inh -10, gsp ag 6%, ClpP mod -3.1% and TRPV1 potentiator 4.
`CCN(CC)C(=O)c1[nH]cnc1C(=O)NCC(=O)OC(C)(C)C` gave gsp antag 8%, Sfp inh 2%, Menin-MLL FL inh 2.2, TRPML1 inh 18, gsp ag -9%, ClpP mod -4.0% and TRPV1 potentiator -11.
`CC(C)Cc1nnc(NC(=O)CN2C(=O)NC3(CCCC3)C2=O)s1` gave gsp antag 10%, TRPML1 inh 11, gsp ag -5%, ClpP mod 1.0% and TRPV1 potentiator 6.
Cc1ccc(-c2c[n+](CC(=O)Nc3c(C)cccc3C)c3n2CCC3)cc1 was read as gsp antag 12%, Sfp inh 19%, Menin-MLL FL inh -0.5, TRPML1 inh 0, gsp ag 14%, ClpP mod -0.9% and TRPV1 potentiator 4.
For CCCCCn1c(=O)c(-c2nc3ccccc3[nH]2)c(O)c2ccccc21 the results were gsp antag 7%, Sfp inh 30%[activator], Menin-MLL FL inh -0.2, TRPML1 inh 18, gsp ag inconclusive and TRPV1 potentiator -11.
For Cc1cc(C)nc(SCSc2nc(C)cc(C)n2)n1 the results were gsp antag 5%, Sfp inh 8%, Menin-MLL FL inh 6.5, TRPML1 inh -4, gsp ag 10%, ClpP mod -3.7% and TRPV1 potentiator 9.

Quoted at random: two entries already listed.
For Cc1cc(C)nc(SCSc2nc(C)cc(C)n2)n1 the results were gsp antag 5%, Sfp inh 8%, Menin-MLL FL inh 6.5, TRPML1 inh -4, gsp ag 10%, ClpP mod -3.7% and TRPV1 potentiator 9.
For CCOc1ccccc1NC(=O)COC(=O)C1CCC(=O)N1 (centres undefined) the results were gsp antag 6%, TRPML1 inh -2 and gsp ag 7%.
